# Cruzain inh Det – qHTS Assay for Promiscuous and Specific Inhibitors of Cruzain (with detergent) | Cruzipain (Trypanosoma cruzi), P25779 | purified cruzain, Z-FR-AMC fluorescence, 0.01% Triton | Potency, µM, for the others: max response, negative = inhibition, actives largely listed as inhibitors | hit rate 0.43% among 200,000; active means well fitted curve in the direction sought with a large enough effect; inconclusive means small, poorly fitted or top-dose-only effect, or another doubt; inactive means no such curve, though single readings can be large; an effect the other way counts as inactive or inconclusive;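 further: plate controls were neutral wells for no effect and buffer without enzyme for full effect; nearly all actives have a fitted effect of over 40% in size; top concentration of the series not given in the record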
# Target sequence (P25779 123-467 limits assumed): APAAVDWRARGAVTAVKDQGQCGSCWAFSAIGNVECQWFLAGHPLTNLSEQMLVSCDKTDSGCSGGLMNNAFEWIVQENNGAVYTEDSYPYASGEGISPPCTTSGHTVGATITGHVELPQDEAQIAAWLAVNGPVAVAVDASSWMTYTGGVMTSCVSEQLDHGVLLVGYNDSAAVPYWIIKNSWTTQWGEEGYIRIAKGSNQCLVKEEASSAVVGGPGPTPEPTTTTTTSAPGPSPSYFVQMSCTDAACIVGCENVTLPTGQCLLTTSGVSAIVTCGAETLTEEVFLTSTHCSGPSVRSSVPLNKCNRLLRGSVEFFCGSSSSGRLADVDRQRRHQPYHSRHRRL
#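 Z-FR-AMC hydrolysis (2 uM substrate) by cruzain (1.5 nM) monitored kinetically at ex 360/em 450 nm after 15 min room-temperature compound exposure; 0.01% Triton X-100, pH 5.5, 5 mM DTT.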
# LASV entry inh – qHTS for Inhibitors of binding or entry into cells for Lassa Virus; Lassa virus pseudotype entry inhibition, cell reporter; control for the full effect not named in the record; Potency, µM (highest dose often 37.9 µM), for inactives: at the top dose activity change, negative = inhibition, actives largely listed as inhibitors; hit rate 1.2% among 300,000; AID 540256, 2011; active means well fitted inhibition curve with a large enough effect; inconclusive means small, poorly fitted or top-dose-only effect, or effect the other way; inactive means flat fitted curve, though single readings scatter; tested in HEK293 cells; further: on the % scale 0 is the no-effect control and ±100 the full control effect; nearly all actives have a fitted effect of over 50% in size; luciferase read-out
# NS1 function inh – qHTS Assay for Inhibitors of Influenza NS1 Protein Function. S. cerevisiae slowed by influenza A NS1, growth recovery by OD600. hit rate 0.4% among 270,000. Potency, µM (highest dose often 46.1 µM), without a hit: at the highest dose activity, positive = more growth; further: actives are rising curves; nearly all actives have a fitted effect of over 50% in size
#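 OD600 was taken as the measure of yeast growth restored by compound in an NS1-expressing S. cerevisiae strain. Cells had been washed out of glucose medium and diluted 1:100 into galactose -URA medium, pH 6.0.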
# RE007 growth inh – qHTS Assay for Inhibitors of the HIV-1 protein Vpr; AID 651644, 2012; S. pombe RE007 Vpr strain, BacTiter-Glo ATP luminescence, 24 h; control for the full effect not named in the record; hit rate 0.21% among 360,000; Potency, µM (series often up to 92.2 µM), without a hit: top-dose activity change, negative = less growth; active = well fitted falling curve with a large enough effect; inconclusive = small, poorly fitted or top-dose-only effect; inactive = no such curve, though single readings can be large or run the other way;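 further: on the % scale 0 is the no-effect control and ±100 the full control effect; nearly all actives have a fitted effect of over 50% in size; the assay follows cell death caused by Vpr and the record does not say whether a fall means rescue or toxicity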
#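 Fission yeast strain RE007, carrying one chromosomally integrated HIV-1 vpr copy, was seeded at OD 0.01 in PMG+AL medium with 23 nL pinned compound. After 24 h at 30 °C and 99% humidity, viability was read by BacTiter-Glo luminescence.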
# MARV entry inh – qHTS for inhibitors of binding or entry into cells for Marburg Virus; Marburg virus pseudotyped entry inhibition, cell reporter; control for the full effect not named in the record; about a third of the inactives were read at about 46 µM; Potency, µM (top dose mostly 37.8 µM), without a hit: top-dose activity change, negative = inhibition, hits mostly inhibitors; hit rate 1.8% among 300,000; AID 540276, 2011; active = well fitted inhibition curve with a large enough effect; inconclusive = small, poorly fitted or top-dose-only effect, or effect the other way; inactive = flat fitted curve, though single readings scatter; tested in HEK293 cells; about a fifth of its hits are not listed in these tables; further: on the % scale 0 is the no-effect control and ±100 the full control effect; luciferase read-out
# 2A StopGo – High Throughput Screening for Foot and Mouth Disease Virus Antivirals | human cells with a luciferase reporter of 2A StopGo recoding; control for the full effect not named in the record | hit rate 1.2% among 410,000 | Potency, µM (doses to about 57.9 µM), inactives show top-dose signal change, negative = less light | AID 1159524, 2015; active = well fitted falling curve with a large enough effect; inconclusive = small, poorly fitted or top-dose-only effect; inactive = no such curve, though single readings can be large or run the other way; tested in HEK293T cells; further: on the % scale 0 is the no-effect control and ±100 the full control effect; nearly all actives have a fitted effect of over 45% in size; luciferase light after 4 h
# Cruzain noTriton – qHTS Assay for Promiscuous and Specific Inhibitors of Cruzain (without detergent). hit rate 2.3% among 200,000. purified cruzain, Z-FR-AMC fluorescence, no detergent. AID 1476, 2009. Cruzipain (Trypanosoma cruzi), P25779. Potency, µM, for the others: max response, negative = inhibition, hits mostly inhibitors; active means well fitted curve in the direction sought with a large enough effect; inconclusive means small, poorly fitted or top-dose-only effect, or another doubt; inactive means no such curve, though single readings can be large; an effect the other way counts as inactive or inconclusive;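 further: plate controls were enzyme without inhibitor for no effect and buffer without enzyme for full effect; nearly all actives have a fitted effect of over 40% in size; top concentration of the series not given in the record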
#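 Purified cruzain at 1.5 nM, pre-incubated 15 min with compound at room temperature in 100 mM sodium acetate pH 5.5, 5 mM DTT, 0.00005% Triton X-100. Reaction started with 2 uM Z-FR-AMC; AMC fluorescence increase over 60 s gives rate.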
# SARS PLpro yeast – qHTS of Yeast-based Assay for SARS-CoV PLP; S. cerevisiae expressing SARS-CoV PLpro, growth rescue; control for the full effect not named in the record; Potency, µM (highest dose often 32.9 µM), for inactives: at the highest dose activity, positive = growth rescue; hit rate 0.19% among 330,000; further: 0% is about no effect; nearly all actives have a fitted effect of over 55% in size; growth read by luminescence after 48 h
# * hit, by the source's call; ? = inconclusive; . = not tested or not shown; & = joins results of further samples; [ ] = dose if it differs, or a comment. Unless noted, the call rests on the fitted dose curve; in most records, active means well fitted rising curve with a large enough effect; inconclusive means small, poorly fitted or top-dose-only effect; inactive means no such curve, though single readings can be large or run the other way. Potency means the concentration at half of the fitted maximal effect.
SMILES,Cruzain inh Det,LASV entry inh,NS1 function inh,RE007 growth inh,MARV entry inh,2A StopGo,Cruzain noTriton,SARS PLpro yeast
Cc1ccc(C)c(S(=O)(=O)N/N=C/c2ccc(N(C)C)cc2)c1,.,-3%,.,26%,6%[46.1 µM],93%[activator],.,-6%
COc1ccc(N2CCC(CNC(=S)Nc3cc(C)cc(C)c3)C2)cc1 (stereo not given),.,-27%,4%,8%,?,23%,.,9%
CC(=O)NC(=S)Nc1ccc(NC(=O)COc2ccc(C(C)C)cc2)cc1,-1.4%,?,9%,11%,?,1%,-28%,19%
COc1ccc(Cl)cc1NC(=O)CCS(=O)(=O)c1cccc2nonc12,3.9%,4%[46.1 µM],.,.,24%[46.1 µM],4%,0%,.
Clc1ccc2c(N3CCCC3)ccnc2c1,-14%,14%,2%,-2%,-25%,-17%,-22%,0%
O=C(CSc1nnc(-c2ccc(F)cc2)n1-c1ccccc1)NCCN1C(=O)CSC1=O,-2.7%,0%,-5%,3%,?,-7%,-2%,-3%
CCCCCC(=O)Nc1nc(C)c(-c2csc(Nc3cc(OC)ccc3OC)n2)s1,5.4%,.,12%,-5%,-6%,-26%,?,-4%
Cc1ccc(CCn2c3c(c4ccccc42)CN(C)CC3)cn1,3.4%,8%,0%,-5%,?,.,-1%,2%
N#Cc1ccc(CN2CCN(C(=O)CNC(=O)Cc3ccccc3)CC2)cc1,.,9%,.,0%,-5%,-23%,.,7%
COc1ccc(-c2cc(=O)oc3c(C)c(O)c(CN(C)C)cc23)cc1,-11%,-27%,-2%,-6%,19%,3%,-4%,2%
CN(C)C(=O)CN1CCN(Cc2cn(C)nc2-c2ccc3c(c2)OCCO3)CC1,.,10%[46.1 µM],7%,2%,12%[46.1 µM],3%,.,0%
CN(C)C(=O)c1ccc(NS(=O)(=O)c2ccc3c(c2)OCCO3)cc1,.,3%,10%,5%,?,16%,.,4%
CCn1nc(C)c(CN2CCCC(C(=O)c3cccc(OC(C)C)c3)C2)c1C (stereo not given),.,.,7%,0%,.,?,.,-2%
O=C(Nc1nccs1)c1cc(-c2ccccc2)nn1-c1ccccc1,7.4%,6%,14%,-19%,?,-10%,?,5%
O=C1N/C(=N\N=C\c2ccco2)SC1Cc1ccc(F)cc1 (stereo not given),.,-20%,-1%,-9%,0%[46.1 µM],-20%,.,-1%
Cc1ccc(-n2nc(C)c3c2OC(N)=C(C#N)C3c2ccc(C)o2)cc1 (stereo not given),-6.9%,-2%,-2%,7%,21%,.,-16%,-20%
CCCCn1c(N)c(NCc2ccccc2)c(=O)[nH]c1=O,.,2%[46.1 µM],.,-13%,6%[46.1 µM],-11%,.,0%
O=S1(=O)CCOCCCN1Cc1ccccc1,.,.,-2%,6%,.,-5%,.,-1%
Cc1ccc(NC(=O)c2ccc(S(=O)(=O)N3CCC(C)CC3)cc2)cc1,4.9%,?,1%,6%,?,-18%,3%,-2%
CCOC(=O)C1CCN(C=C2C(=O)N(C)C(=S)N(C)C2=O)CC1,0.6%,1%,10%,1%,-29%,6%,2%,1%
CC(=O)Nc1ccc2nc(-c3ccco3)[nH]c2c1,.,?,.,15%,?,41%[activator],.,-2%
COc1ccc(Cl)cc1S(=O)(=O)n1ccnc1,.,12%,8%,-22%,?,-6%,.,0%
CCOC(=O)CNC(=O)N1CCCC(N(C)CCc2ccccc2)C1 (stereo not given),.,8%[46.1 µM],9%,-12%,12%[46.1 µM],6%,.,6%
CCc1nnc(NC(=O)CCC(=O)N2CCN(S(=O)(=O)c3ccc(OC)cc3)CC2)s1,.,.,0%,2%,.,32%,.,13%
N#Cc1c([N+](=O)[O-])cc([N+](=O)[O-])cc1S(=O)(=O)Cc1ccccc1,.,11µM*,.,?,?,28µM*,.,12%
# New compounds follow:
SMILES,Cruzain inh Det,LASV entry inh,NS1 function inh,RE007 growth inh,MARV entry inh,2A StopGo,Cruzain noTriton,SARS PLpro yeast
Cc1ccccc1C(=O)Nc1ccnn1C1CCN(Cc2ccncc2)CC1,.,-9%,8%,-27%,-15%,-20%,.,2%
NC(=O)CC(NC(=O)c1ccccc1)c1ccc(NCCCN2CCCC2=O)c([N+](=O)[O-])c1 (stereo not given),.,.,6%,-12%,.,-12%,.,8%
Cc1ccc(-n2ncc3c(=O)n(CC(=O)N(C)C)cnc32)cc1,.,.,-10%,1%,.,4%,.,-4%
COc1cc(OC)cc(C(=O)NC2CCN(Cc3nnnn3Cc3cccs3)CC2)c1,4.9%,-20%,-6%,-5%[3.69 µM],10%,-11%,1%,2%
Cc1cc(C(=O)N/N=C2\CCCC(C)C2)n[nH]1 (stereo not given),5.1%,0%,-3%,45%,14%,.,-8%,3%
CC(=O)Nc1ccc(NC(=O)CSc2nnc(C3CC3)n2C)cc1,3.6%,28%,1%,13%,2%[46.1 µM],0%,-11%,1%
Cc1cc(C)c(NC(=O)CS(=O)CC(=O)Nc2ccc(-n3cnnn3)c(C)c2)c(C)c1 (stereo not given),.,?,1%,-15%,?,-12%,.,4%
O=C(N/N=C/c1cc(Br)cs1)c1ccc2c(c1)OCCO2,.,?,-3%,-2%,?,-3%,.,0%
Cc1ccc(NS(=O)(=O)c2ccc(C(=O)NCC3CCCO3)cc2)cc1 (stereo not given),.,?,.,13%,-10%[46.1 µM],26%,.,0%
COc1cc(C2NC(=S)NC(C)=C2C(=O)OC(C)C)ccc1OC(C)C (stereo not given),-3.9%,-3%,3%,-2%,11%,-5%,-6%,-8%
Cc1ccc(C(=O)NCC(=O)OCc2cc(=O)n3nc(C4CCCCC4)sc3n2)cc1,-2.5%,-9%[46.1 µM],.,.,.,-1%,9%,.
COc1ccc(NC(=O)CSc2cc(C)nc3c(-c4ccccc4)cnn23)cc1,.,?,0%,10%,?,-18%,.,0%
CCc1nc(SCC(=O)Nc2ccccc2C(=O)OC)n[nH]1,3.3%,-5%,-3%,10%,0%,0%,-15%,8%
Cc1cc(NS(=O)(=O)Cc2ccccc2)cc(C)c1OCC(=O)N1CCOCC1,3.7%,4%,-4%,10%,0%&0%,-7%,-7%,2%
CC1(C)C(=O)N(c2ccccc2)C1c1ccccc1O (stereo not given),.,?,-6%,-9%,?,-27%,.,0%
O=C(COc1cc2oc(=O)c3c(c2cc1Cl)CCC3)NCC1CCC(C(=O)O)CC1 (stereo not given),.,.,2%,2%,.,-17%,.,14%
NC(=O)c1ccccc1NC(=O)C1CCCN(c2ncnc3onc(-c4ccc(F)cc4)c23)C1 (stereo not given),-3.1%,8%[46.1 µM],.,.,.,-10%,5%,.
COc1ccc(OC)c(NC(=O)CCn2ccnc2)c1,.,24%[46.1 µM],0%,3%,5%[46.1 µM],-10%,.,-2%
Cn1c(SCC(=O)O)nnc1C1CCCCC1,4.0%,1%,-6%,-15%,1%,2%,4%,7%
CCCS(=O)(=O)N1CCCC(C(=O)N2CCN(c3ccccc3)CC2)C1 (stereo not given),3.7%,1%,-7%,-3%,-5%,-10%,-2%,2%
Cc1ccc(C(=O)CSc2nnc(COc3ccc(C#N)cc3)n2-c2ccccc2)cc1,-1.8%,-8%,5%,3%,16%,-6%,-4%,-14%
Cc1cccc(NC(=O)CSC2=Nc3ccccc3C3=NC(CCC(=O)NCc4ccc(F)cc4)C(=O)N23)c1 (stereo not given),-0.6%,5%[46.1 µM],.,.,3%[46.1 µM],-24%,2%,.
COc1ccc(C)cc1NC(=O)NNC(=O)C(C)Oc1ccc(F)cc1Cl (stereo not given),.,.,10%,7%,.,-29%,.,-2%
CSCC[C@H](NC(=O)[C@H](Cc1ccccc1)n1c(=O)[nH]c2ccccc2c1=O)C(=O)NCC1CCC(C(=O)O)CC1 (stereo not given in full),.,.,11µM*,-4%,.,-13%,.,3%
O=C(CC1C(=O)N(c2ccc(Cl)cc2)C(=S)N1CCc1ccncc1)Nc1ccc(F)cc1 (stereo not given),-6.9%,2%,17%,-3%,?,.,5%,-7%
# (list continues)
SMILES,Cruzain inh Det,LASV entry inh,NS1 function inh,RE007 growth inh,MARV entry inh,2A StopGo,Cruzain noTriton,SARS PLpro yeast
COc1ccc(-c2cn[nH]c2N)cc1OC,6.4%,-1%,15%,1%,?,-1%,13%,14%
CCn1ccnc1CN(C)C(=O)c1cc(COc2c(F)cccc2F)on1,.,.,3%,-21%,.,9%,.,0%
COC(=O)c1cc2oc(C)cc2n1CC(=O)Nc1ccc(OC)c(OC)c1OC,1.5%,.,-12%,.,8%,.,20%,10%
CCOc1ccc(C2C(=O)N(C3CCCCC3)CC(=O)N2CCc2ccccc2)cc1OC (stereo not given),0.7%,4%[46.1 µM],.,.,.,-18%,?,.
Cc1nc(N2CCCC2)c2c(C(=O)Nc3cccc(Cl)c3)c(C)oc2n1,-4.2%,10%[46.1 µM],.,.,.,3%,-4%,.
Nn1c(COc2ccccc2F)nnc1SCC(=O)NC1CCS(=O)(=O)C1 (stereo not given),.,?,.,17%,19%,-10%,.,-4%
COc1ccc(NC(=O)c2cc(OC)c(OC)c(OC)c2)cc1S(=O)(=O)N1CCCCC1,.,?,.,-2%,-17%[46.1 µM],?,.,-2%
CCOC(=O)c1cc(S(=O)(=O)Nc2ccc(Br)c(C)c2)[nH]n1,-9.5%,27%[46.1 µM],.,.,.,62%[activator],18%,.
Cc1ccc(OCC(=O)NNC(=O)Cn2c(=O)cnc3ccccc32)cc1,.,-6%,.,4%,14%[46.1 µM],7%,.,3%
COCCOC(=O)c1c(NC(=O)CN(C)c2ccccc2)sc(C(N)=O)c1C,.,-23%,3%,-4%,-23%[46.1 µM],-19%,.,5%
Cc1cc(C)c(NC(=O)OCCN2CCOCC2)c(C)c1,7.5%,-2%,1%,0%,-1%&-1%,-8%,21%,1%
CCCCCCCC[n+]1c(C)n(-c2ccccc2)c2ccc(NC(C)=O)cc21,.,7.1µM*,5%,-15%,?,?,.,1%
